# Compound activity from PubChem.
# PINK1 modulator = A Quantitative High throughput Screen to Identify Chemical Modulators of PINK1 Expression. PINK1 immunofluorescence, high-content cytometry, 24 h. Potency, µM (highest dose often 76.6 µM), inactives show at the top dose activation (PINK1 increase), hits mostly activators. actives 0.2% (n = 410,000). AID 624263, 2012; active = well fitted activation curve with a large enough effect; inconclusive = small, poorly fitted or top-dose-only effect; inactive = flat fitted curve, though single readings scatter; cell line not stated here;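 note: % of control where 0% means no effect; nearly all actives have a fitted effect of over 65% in size; a mitochondrial uncoupler was the plate control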
#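 Compound titrations (5 concentrations, 24 h) on a stable cell line; DMSO and CCCP controls. Endpoint: fixed-cell PINK1 immunofluorescence with mitochondrial, cell and nuclear markers, scanned by microplate cytometer.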
# Numbers without * were called inactive; ? = inconclusive. Potency is the fitted concentration of half-maximal effect.
PINK1 modulator,mol
-0.1%,COc1ccc(OC)c(CNC(=O)C(C)n2c(C)c3cnn(-c4ccccc4)c(=O)c3c2C)c1 (stereo unspecified)
-1.0%,CC(=O)N1CCCc2cc(S(=O)(=O)N3CCC(C(=O)NC4CCCCC4)CC3)ccc21
2.7%,CCOC(=O)c1c(S(=O)(=O)NCC(=O)Nc2cccc(SC)c2)c(C)n(C)c1C
0.4%,Cc1c(Cl)cccc1NC(=O)CCS(=O)(=O)c1cccc2nsnc12
-0.4%,COc1ccc(-n2cc(-c3ccc4c(c3)OCO4)n(CC(=O)Nc3cccc(C)c3)c2=O)cc1
-0.2%,Cc1ccc(NC(=O)c2ccc(=O)n(CC(=O)Nc3cc(C)cc(C)c3)n2)cc1
1.1%,Cc1ccc(CNC(=O)Cn2cc3c(n2)-c2c(oc(C(=O)N4CCOCC4)c2C)CC3)cc1
0.4%,COc1ccc(CCNc2nc3c(c(=O)n(C)c(=O)n3C)n2Cc2ccccc2Cl)cc1OC
-0.9%,CC1(C)CC(=O)c2cc(-c3nc(-c4ccc(Cl)cc4)cs3)c(=O)n(-c3ccc(Cl)cc3)c2C1
1.8%,O=C(CSc1nc(-c2cccs2)nc2cc(=O)[nH]n12)Nc1ccccc1
-5.2%,COCCNc1ncnc2onc(-c3ccc(F)cc3)c12
0.6%,O=S(=O)(c1ccc(F)cc1)N1CCC(Oc2ccc(-n3cnnn3)cc2)CC1
1.7%,COc1ccc(C)cc1NC(=O)Cn1c(=O)cc(C)c2c(C)nn(C)c21
4.0%,CCC(=O)N1CCc2cc(S(=O)(=O)NC(C(=O)Nc3ccc(C(C)=O)cc3)C(C)C)ccc21 (stereo unspecified)
-0.5%,COc1ccc(C(=O)CCC(=O)Nc2ccc(OC)c(Cl)c2)cc1
-0.3%,Cc1oc2ccc(O)c(CN3CCN(C)CC3)c2c1C(=O)Nc1ccc(C(C)C)cc1
0.2%,CC(=O)c1ccc(NC(=O)COCc2cc(-c3ccco3)on2)cc1
1.9%,CCCCN(CC)C(=O)c1nn(C)c2c1CSc1ccccc1-2
0.0%,CCCC(=O)N(C)c1ccc(/C=C2\C=Cc3ccccc32)cc1
-0.8%,COc1cccc(CNS(=O)(=O)c2cnc(N)nc2)c1
2.7%,CC1CN(S(=O)(=O)c2ccc3c(c2)NC(=O)CC(=O)N3)c2ccccc2O1 (stereo unspecified)
2.0%,Cc1ccc(Cl)cc1Nc1nn2c(=O)c3ccc(C(=O)Nc4ccc(F)cc4)cc3nc2s1
-0.6%,CC(=O)Nc1ccccc1-c1nc(CNC(=O)c2cccc(F)c2)c(C)o1
5.2%,CCOc1ccc(NC(=O)CSc2nc3ccsc3c(=O)n2CCC(C)C)cc1
4.2%,Cc1cccc(C(=O)NCc2nc3ccccc3n2Cc2ccccc2Cl)c1
3.2%,CCc1ccccc1NS(=O)(=O)c1ccc2[nH]cc(C(=O)N(CC)Cc3ccccc3)c(=O)c2c1
-0.3%,O=c1c(=O)n(-c2ccccc2)ccn1Cc1cccc(C(F)(F)F)c1
4.1%,CCOc1ccc(C(=O)NCCc2sc(-c3ccc(C)cc3)nc2C)cc1
1.7%,CCCCNC(=O)CN1C(=O)c2cccnc2Sc2ccccc21
3.3%,CNC(=O)COc1ccc(NC(=O)c2ccc(-c3nn(C)c(=O)c4ccccc34)cc2)cc1
0.1%,COc1ccc(CCn2c(=S)[nH]c(=O)c3nccnc32)cc1OC
0.7%,Cc1ccc(NC(=O)CC2Nc3cc(C)c(C)cc3NC2=O)c(C)c1 (stereo unspecified)
-1.1%,COc1ccc(Cl)cc1NC(=O)CSc1nc(=O)n(Cc2ccco2)c2c1CCC2
0.2%,COc1cn(CC(=O)Nc2ccccc2)c(CN2CCCCC2)cc1=O
2.6%,Cc1ccc(-n2nc3c(N4CCCC(C(=O)NCc5ccccc5C)C4)nnc(C)c3c2C)cc1 (stereo unspecified)
0.3%,Cc1nc2cccnc2n1C1CCN(S(C)(=O)=O)CC1
-1.3%,CCOc1ccc(OCC(=O)NCCS(=O)(=O)N2CCN(c3ccccc3F)CC2)cc1
-0.7%,COc1ccc(-c2cn3nc(SCC(=O)Nc4cc(C)cc(C)c4)ccc3n2)cc1
6.7%,O=Cc1ccc(/C=C2\C=Cc3ccccc32)cc1
0.8%,Cn1c2ccsc2c2ncn(Cc3ccc(F)cc3)c(=O)c21
-0.6%,COc1cccc(Cn2nnc3c(=O)[nH]c(C4CCN(C(=O)c5ccccc5Cl)CC4)nc32)c1
0.3%,COc1ccc(OC)c(-n2c(=O)[nH]c3cc(C(=O)NCCc4ccc(OC)c(OC)c4)ccc3c2=O)c1
-2.6%,COc1ccc(N2C(=O)CSC23C(=O)N(CC(=O)Nc2ccccc2F)c2ccccc23)cc1 (stereo unspecified)
-0.4%,Cc1ccc(CN(Cc2ccco2)c2cnc(S(C)(=O)=O)nc2C(=O)Nc2ccccc2Br)o1
-1.1%,Cc1cc(NC(=O)N2CCC(CN3CCCCCC3)CC2)ccc1Br
0.8%,Cc1ccc(CN2CCSc3ccc(C(=O)N4CCN(c5ccc(Cl)cc5)CC4)cc32)cc1
1.4%,Cc1ccc(C(=O)Nc2ccc3[nH]c(=O)c(=O)[nH]c3c2)cc1
-0.9%,CCOC(=O)C1CCN(C(=O)c2c(C)nn(-c3ccc(F)cc3)c2-n2cccc2)CC1
0.8%,COc1cccc(-n2c(=O)c3c(C)c(C)sc3n(Cc3ccccc3C#N)c2=O)c1
-1.1%,CC1=C(C(=O)NCc2ccc(C)cc2)C2(CCCCC2)OC1=O

# Additional structures follow.
PINK1 modulator,mol
-0.4%,Cc1nn2c(=O)cc(COC(=O)c3ccccc3NC(=O)C3CCCCC3)nc2s1
-1.3%,Cc1ccc(NC(=O)CN2C(=O)C(c3ccc(C)cc3)=NC23CCCCCC3)cc1
2.2%,CCCCCNC(=O)c1c[nH]c2ccc(S(=O)(=O)N3CCC(C)CC3)cc2c1=O
-0.1%,O=C(NCCc1ccc(Cl)cc1)C(=O)NCC(c1ccc2c(c1)OCO2)N1CCOCC1 (stereo unspecified)
2.2%,Cc1nn(S(=O)(=O)c2ccc(F)cc2)c(C)c1S(=O)(=O)N1CCCCCC1
2.4%,Cc1nn(C(=O)c2cccc(F)c2)c(C)c1S(=O)(=O)N1CCOCC1
-0.5%,Cc1cnc(C(=O)N2CCOc3ccc(CN4CCCC(C(=O)c5cccnc5)C4)cc3C2)[nH]1 (stereo unspecified)
-0.2%,O=C(Nc1ccc2nc(SCC(=O)N3CCCC3)sc2c1)c1ccccc1F
-0.1%,COc1ccc(-n2c(=O)c3ccccc3n(Cc3ccccc3C)c2=O)c(OC)c1
8.2%,CCCCC(CC)CNC(=O)CN(C)S(=O)(=O)c1ccc2c(c1)c(=O)n(C)c(=O)n2C (stereo unspecified)
?,CCC(C(=O)Nc1ccc(C)c(Cl)c1)n1c(=O)c(-c2ccccc2NC(C)=O)nc2ccccc21 (stereo unspecified)
1.3%,CCSc1nc2c(c(=O)[nH]c(=O)n2C)n1CC(O)COc1ccc(Cl)cc1 (stereo unspecified)
0.3%,COc1cc(NS(=O)(=O)c2ccc(NC(=O)COc3ccc(Cl)cc3Cl)cc2)nc(OC)n1
2.3%,Cc1cc(C)c(OCCOCCn2c(-c3ccc(Cl)cc3)nc3ccccc3c2=O)c(C)c1
0.4%,O=C(COc1ccccc1F)Nc1ccc2nc(SCCOc3ccccc3)sc2c1
-1.0%,Cc1ccc(S(=O)(=O)N2CCN(c3nc(-c4ccc(F)cc4)nc4cc(Cl)ccc34)CC2)cc1
0.1%,Cc1cc(CNC(=O)CCN2Cc3cc(Cl)ccc3OC(C)C2)nn1C (stereo unspecified)
3.4%,Cc1ccc(CSc2nc3ccsc3c(=O)n2CCC(C)C)cc1
2.3%,CCOc1ccc(CNC(=O)c2ccc3oc(=O)n(Cc4ccccc4)c3c2)cc1
1.9%,CCn1cc(C(=O)N2CCN(c3ccccc3F)CC2)c(=O)c2cc(S(=O)(=O)N(C)C)ccc21
0.0%,COC(=O)C1=C(C)N(C(C)C)C(=O)C1(NC(=O)c1ccccc1OC)C(F)(F)F (stereo unspecified)
8.5%,Cc1ccc(-c2cc(NC(=O)c3cccc(C)c3)on2)cc1
0.5%,COc1ccc(/C=C2/C=Cc3ccccc32)cc1
4.7%,CCOc1ccc(Sc2cc(C(=O)NCc3ccc(F)cc3)c3ccccc3n2)cc1
1.0%,CCOc1ccc(C(=O)N2CC(=O)Nc3ccc(C)cc3C2c2ccc(F)cc2)cc1OCC (stereo unspecified)

# Two consecutive compounds out of the list so far, quoted:
PINK1 modulator,mol
4.7%,CCOc1ccc(Sc2cc(C(=O)NCc3ccc(F)cc3)c3ccccc3n2)cc1
1.0%,CCOc1ccc(C(=O)N2CC(=O)Nc3ccc(C)cc3C2c2ccc(F)cc2)cc1OCC (stereo unspecified)

# Later entries.
PINK1 modulator,mol
-0.3%,CCOC(=O)Cn1c(=O)n(CC2CCCO2)c2nc(-c3ccccc3)nc(C(N)=O)c21 (stereo unspecified)
4.1%,Cc1cc(Br)cc(C)c1NC(=O)c1sc2ncn(Cc3cccc(F)c3)c(=O)c2c1C
0.7%,COc1ccc(NC(=O)CN2C(=O)COc3ccc(S(=O)(=O)N4CCCCC4)cc32)cc1Cl
0.9%,Cc1nc(SCCOc2ccc(Cl)cc2)[nH]c(=O)c1Cc1ccccc1
0.2%,COc1cccc(CNC(=O)c2cccc(NC(=O)c3nsc4ccccc34)c2)c1
1.8%,Cc1cc(SCC(=O)NCc2ccccc2Cl)nc(=O)[nH]1
-0.6%,COc1ccc(-c2nc3ccccc3s2)cc1NC(=O)c1ccccc1OC
0.5%,CCOC(=O)c1ccc(NC(=O)CCc2c(C)nc3nc[nH]n3c2=O)cc1
11%,COc1ccc2c(c1)-c1nc(NC(=O)c3ccc(OC)c(Br)c3)sc1CC2
2.9%,CCc1cccc(C)c1NC(=O)C1CCN(S(=O)(=O)Cc2ccccc2)CC1
0.7%,CCn1c(=O)c2cc(C(=O)NCCCN(C)Cc3ccccc3)sc2c2ccccc21
2.9%,CCc1c(C)sc2c1CCN(C(=O)Nc1cc(C)cc(C)c1)C2c1ccccc1 (stereo unspecified)
0.9%,CCOc1ccc(CCNC(=O)c2cc3c(=O)n(C)c4ccccc4c3n2C)cc1OCC
-1.0%,Cc1ccc(C)c(CSc2c(C(C)C)cnc3c2c(=O)n(C)c(=O)n3C)c1
-2.9%,Cc1oc2ncnc(N3CCCCC3)c2c1C(=O)Nc1cccc(F)c1
0.2%,CN(C)c1ccc(C(CNC(=O)c2ccc(C(C)(C)C)cc2)N2CCCC2)cc1 (stereo unspecified)
0.6%,CSc1nn(CC(=O)Nc2ccccc2F)c(N)c1S(=O)(=O)c1ccccc1
4.1%,COC(=O)c1c(C)oc2ccc(N(C(=O)c3ccncc3)S(=O)(=O)c3ccc(Br)cc3)cc12
4.3%,COc1ccc(OC)c(CNC(=O)c2cc3c(-c4ccc(OC)c(OC)c4)nn(C)c3s2)c1
0.6%,CCCN1CNc2c(c(=O)[nH]c(=S)n2CCc2c(OC)cccc2OC)C1
-0.2%,CCOC(=O)c1cnc2cc(C(F)(F)F)ccc2c1N1CCN(c2ccc(F)cc2)CC1
1.7%,COc1ccc(C(=O)NCc2ccc3c(c2)CCN3C(=O)c2ccc(Cl)cc2)c(OC)c1
-2.1%,CCN(Cc1ccc(OC)cc1)c1ccc(-c2nc(-c3ccncc3)no2)cc1[N+](=O)[O-]
8.7%,Cc1cc(=O)n(Cc2cccc(Cl)c2)c2c1c(C)nn2C
0.7%,CCN(CC)c1ccc(NC(=O)c2sc3nc4c(cc3c2N)CN(C)CC4)cc1
-0.3%,Cc1ccc(C)c(N2CCN(C(=O)c3cccc(-n4c(C)nc5cccnc54)c3)CC2)c1
0.8%,O=C(Nc1ccccc1)N(Cc1cccs1)c1ccc(F)cc1
-0.5%,O=C(NCCc1ccc(F)cc1)C(=O)NCC(c1ccc2c(c1)OCO2)N1CCOCC1 (stereo unspecified)
0.8%,O=C(CSc1nc(=O)n(Cc2ccco2)c2c1CCC2)NCc1ccc(Cl)cc1
20%,CSc1cccc(-n2nnc(-c3nsc(NC(=O)c4cccs4)n3)c2C)c1
10%,CC(C)CC(=O)Nc1nc2c(s1)CC(C(C)(C)C)CC2 (stereo unspecified)
8.2%,CCOc1ccc(NC(=O)CCS(=O)(=O)c2cccc3nonc23)cc1
5.4%,Cc1ccc(NC(=O)Cn2c(=O)n(CCCS(=O)(=O)C3CCCCC3)c(=O)c3ccccc32)cc1F
0.2%,COc1ccc(-n2c(=O)c3c(c4cc(OC)ccc4n3C)n(Cc3cc(C)ccc3C)c2=O)cc1
-1.1%,COc1ccccc1CNc1nc2c(S(=O)(=O)c3ccc(C)c(C)c3)nnn2c2ccc(Cl)cc12
2.0%,COc1cccc(NC(=O)N2CCC(CN3CCOCC3)CC2)c1
2.4%,CCc1ccccc1NC(=O)c1sc(-n2nc(C)c(Cc3ccccc3)c2C)nc1C

# Quoted at random: two records from the list.
PINK1 modulator,mol
2.2%,CCCCCNC(=O)c1c[nH]c2ccc(S(=O)(=O)N3CCC(C)CC3)cc2c1=O
-2.1%,CCN(Cc1ccc(OC)cc1)c1ccc(-c2nc(-c3ccncc3)no2)cc1[N+](=O)[O-]

# Ordered by heavy-atom count (low to high): part of the list above.
PINK1 modulator,mol
1.9%,CCCCN(CC)C(=O)c1nn(C)c2c1CSc1ccccc1-2
3.4%,Cc1ccc(CSc2nc3ccsc3c(=O)n2CCC(C)C)cc1
1.8%,O=C(CSc1nc(-c2cccs2)nc2cc(=O)[nH]n12)Nc1ccccc1
0.6%,CCCN1CNc2c(c(=O)[nH]c(=S)n2CCc2c(OC)cccc2OC)C1
2.2%,CCCCCNC(=O)c1c[nH]c2ccc(S(=O)(=O)N3CCC(C)CC3)cc2c1=O
8.2%,CCCCC(CC)CNC(=O)CN(C)S(=O)(=O)c1ccc2c(c1)c(=O)n(C)c(=O)n2C (stereo unspecified)

# A portion of the library, so the mix of outcomes need not match the whole.
